Screening data (PubChem)
SARS PLP yeast = qHTS of Yeast-based Assay for SARS-CoV PLP; S. cerevisiae expressing SARS-CoV PLpro, growth rescue; control for the full effect not named in the record; Potency, µM (titrated, usually from 32.9 µM), without a hit: at the highest dose activity, positive = growth rescue; 0.19% of 330,000 active; note: 0% is about no effect; nearly all actives have a fitted effect of over 55% in size; growth read by luminescence after 48 h
StopGo reporter = High Throughput Screening for Foot and Mouth Disease Virus Antivirals; human cells with a luciferase reporter of 2A StopGo recoding; control for the full effect not named in the record; Potency, µM (doses to about 57.9 µM), for the others: at the top dose signal change, negative = less light; 1.2% of 410,000 active; AID 1159524, 2015; active = well fitted falling curve with a large enough effect; inconclusive = small, poorly fitted or top-dose-only effect; inactive = no such curve, though single readings can be large or run the other way; tested in HEK293T cells; note: % is set by controls: 0 for no effect and ±100 for the full control effect; nearly all actives have a fitted effect of over 45% in size; luciferase light after 4 h
LASV entry inh = qHTS for Inhibitors of binding or entry into cells for Lassa Virus. Lassa virus pseudotype entry inhibition, cell reporter; control for the full effect not named in the record. Potency, µM (highest dose often 37.9 µM), for the others: top-dose activity change, negative = inhibition, usual class: inhibitors. 1.2% of 300,000 active. AID 540256, 2011; active means well fitted inhibition curve with a large enough effect; inconclusive means small, poorly fitted or top-dose-only effect, or effect the other way; inactive means flat fitted curve, though single readings scatter; tested in HEK293 cells; note: % is set by controls: 0 for no effect and ±100 for the full control effect; nearly all actives have a fitted effect of over 50% in size; luciferase read-out
MARV entry inh = qHTS for inhibitors of binding or entry into cells for Marburg Virus. Marburg virus pseudotyped entry inhibition, cell reporter; control for the full effect not named in the record; about a third of the inactives were read at about 46 µM. 1.8% of 300,000 active. AID 540276, 2011. Potency, µM (highest dose often 37.8 µM), without a hit: at the top dose activity change, negative = inhibition, most hits filed as inhibitors; active = well fitted inhibition curve with a large enough effect; inconclusive = small, poorly fitted or top-dose-only effect, or effect the other way; inactive = flat fitted curve, though single readings scatter; tested in HEK293 cells; about a fifth of its hits are not listed in these tables; note: % is set by controls: 0 for no effect and ±100 for the full control effect; luciferase read-out
Cruzain inh noDet = qHTS Assay for Promiscuous and Specific Inhibitors of Cruzain (without detergent); purified cruzain, Z-FR-AMC fluorescence, no detergent; Potency, µM, for the others: max response, negative = inhibition, hits mostly inhibitors; 2.3% of 200,000 active; AID 1476, 2009; active = well fitted curve in the direction sought with a large enough effect; inconclusive = small, poorly fitted or top-dose-only effect, or another doubt; inactive = no such curve, though single readings can be large; an effect the other way counts as inactive or inconclusive;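 note: plate controls were enzyme without inhibitor for no effect and buffer without enzyme for full effect; nearly all actives have a fitted effect of over 40% in size; top concentration of the series not given in the record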
Target sequence (P25779 123-467 limits assumed): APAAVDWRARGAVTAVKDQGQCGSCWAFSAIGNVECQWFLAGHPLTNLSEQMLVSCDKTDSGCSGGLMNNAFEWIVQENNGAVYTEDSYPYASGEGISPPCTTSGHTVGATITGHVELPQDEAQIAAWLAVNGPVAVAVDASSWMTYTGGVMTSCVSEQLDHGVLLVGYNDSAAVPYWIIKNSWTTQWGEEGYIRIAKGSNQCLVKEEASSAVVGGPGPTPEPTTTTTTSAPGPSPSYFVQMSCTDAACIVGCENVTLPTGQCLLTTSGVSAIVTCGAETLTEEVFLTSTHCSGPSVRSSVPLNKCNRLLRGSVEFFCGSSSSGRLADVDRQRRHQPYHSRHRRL
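Detergent-free condition (0.00005% Triton X-100) in acetate buffer pH 5.5 with DTT. 1.5 nM enzyme and compound were pre-mixed 15 min, then 2 uM Z-FR-AMC substrate added; reaction progress from fluorescence change between first and third reads (60 s).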
Cruzain Triton = qHTS Assay for Promiscuous and Specific Inhibitors of Cruzain (with detergent). Cruzipain (Trypanosoma cruzi), P25779. purified cruzain, Z-FR-AMC fluorescence, 0.01% Triton. Potency, µM, without a hit: max response, negative = inhibition, actives largely listed as inhibitors. 0.43% of 200,000 active. AID 1478, 2009; active = well fitted curve in the direction sought with a large enough effect; inconclusive = small, poorly fitted or top-dose-only effect, or another doubt; inactive = no such curve, though single readings can be large; an effect the other way counts as inactive or inconclusive;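 note: plate controls were neutral wells for no effect and buffer without enzyme for full effect; nearly all actives have a fitted effect of over 40% in size; top concentration of the series not given in the record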
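Cruzain (1.5 nM) preincubated 15 min at RT with compound in 100 mM sodium acetate pH 5.5, 5 mM DTT, 0.01% Triton X-100. Reaction started with 2 uM Z-FR-AMC; AMC fluorescence (ex 360/em 450 nm) change over 60 s gave rate.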
RE007 growth inh = qHTS Assay for Inhibitors of the HIV-1 protein Vpr. 0.21% of 360,000 active. Potency, µM (doses to about 92.2 µM), without a hit: top-dose activity change, negative = less growth. S. pombe RE007 Vpr strain, BacTiter-Glo ATP luminescence, 24 h; control for the full effect not named in the record; active = well fitted falling curve with a large enough effect; inconclusive = small, poorly fitted or top-dose-only effect; inactive = no such curve, though single readings can be large or run the other way;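 note: % is set by controls: 0 for no effect and ±100 for the full control effect; nearly all actives have a fitted effect of over 50% in size; the assay follows cell death caused by Vpr and the record does not say whether a fall means rescue or toxicity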
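Fission yeast strain RE007, carrying one chromosomally integrated HIV-1 vpr copy, was seeded at OD 0.01 in PMG+AL medium with 23 nL pinned compound. After 24 h at 30 °C and 99% humidity, viability was read by BacTiter-Glo luminescence.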
NS1 inh = qHTS Assay for Inhibitors of Influenza NS1 Protein Function. AID 2326, 2010. Potency, µM (doses to about 46.1 µM), inactives show at the highest dose activity, positive = more growth. 0.4% of 270,000 active. S. cerevisiae slowed by influenza A NS1, growth recovery by OD600; note: actives are rising curves; nearly all actives have a fitted effect of over 50% in size
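S. cerevisiae expressing influenza A NS1, grown in glucose, washed, then diluted 1:100 into pH 6.0 -URA galactose medium with 23 nl compound. Growth recovery read as OD600; NS1-free strain serves as control.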
Numbers without * were called inactive; ? = inconclusive; / = not tested or not shown; & = joins results of further samples; [ ] = dose if it differs, or a comment. Unless noted, calls come from the whole dose curve; as a rule, active means well fitted rising curve with a large enough effect; inconclusive means small, poorly fitted or top-dose-only effect; inactive means no such curve, though single readings can be large or run the other way. Potency is the fitted concentration of half-maximal effect.

SMILES	SARS PLP yeast	StopGo reporter	LASV entry inh	MARV entry inh	Cruzain inh noDet	Cruzain Triton	RE007 growth inh	NS1 inh
COc1ccc(N2CCN(S(=O)(=O)c3cc(C)ccc3OC)CC2)cc1	0%	42%[activator]	?	5%[46.1 µM]	/	/	29%	0%
CCOc1cc(C(=O)Nc2cccnc2)cc(OCC)c1OCC	-4%	-12%	/	/	/	/	2%	-2%
Cc1cccc(OCCn2c(CCCO)nc3ccccc32)c1	2%	-15%	-13%	4%	3%	2.5%	-16%	-15%
COc1cc(NC(=O)c2ccc(Br)cc2)c(OC)cc1NC(=O)c1ccccc1	-5%	-11%	/	/	/	/	3%	0%
Cc1oc(-c2ccccc2)nc1CNS(=O)(=O)c1ccc(Cl)cc1	/	0%	?	/	0%	-4.6%	/	/
Cc1cc(C)nc(N/N=C/C(Cl)=C/c2ccccc2)n1	9%	40%[activator]	?	?	-6%	-9.8%	-18%	-11%
N#CC1=C(N)Oc2cc(N)ccc2C1c1ccccc1F (stereo not given)	-2%	-6%	?	?	/	/	4%	7%
O=C(c1ccc(Cl)cc1)C1CCCN(C(=O)c2csnn2)C1 (stereo not given)	2%	-17%	13%	-4%[46.1 µM]	/	/	40%	-4%
CCC(C)c1ccccc1NC(=O)C(C)OC(=O)c1ccco1 (stereo not given)	6%	-24%	-7%	12%	/	/	0%	/
COc1ccc(OCC(=O)NNC(=O)C2CCCO2)cc1 (stereo not given)	20%	-4%	-4%	3%	2%	-0.5%	-8%	-6%
CCOc1ccccc1NC(=O)COC(=O)CN(C)S(=O)(=O)c1ccc(C)cc1	6%	15%	1%	23%	10%	3.9%	-4%	/
O=C(COc1ccc2ccccc2c1Br)Nn1cnnc1	1%	3%	12%	1%	-25%	-8.7%	0%	4%
Cc1ccc(S(=O)(=O)N2CCC(C(=O)Nc3ccc(S(=O)(=O)N4CCCC4)cc3)CC2)cc1C	-2%	0%	?	?	/	/	-2%	/
Cc1csc2nc(-c3cccc(NC(=O)c4ccc(S(N)(=O)=O)cc4)c3)cn12	/	24%	13%[46.1 µM]	/	-21%	-2.9%	/	/
Cc1ccc(C(=O)N2CCCC(C(=O)c3ccc(Cl)cc3C)C2)cn1 (stereo not given)	-4%	-28%	?	?	/	/	-3%	-5%
CCCC[C@H]1COCCS(=O)(=O)N1Cc1ccc(F)cc1	-7%	-19%	/	/	/	/	-4%	-13%
CC(=O)Nc1nc2c(s1)CCc1ccccc1-2	-1%	23%	/	/	/	/	8%	-6%
CCc1cc(Cl)c(OC)c(C(=O)NC[C@@H]2CCCN2CC)c1O	/	-22%&-2%&-24%	/	/	-1%&-11%	-3.4%&-0.3%	7%[18.4 µM]	/
Nc1nc2c(s1)CCc1ccccc1-2	-11%	19%	/	/	/	/	-12%	-66%
CN(C)c1ccc(/C=N/N(CCC(=O)NC(C)(C)C)C2=NS(=O)(=O)c3ccccc32)cc1	0%	-17%	?	-26%[46.1 µM]	/	/	16%	2%
O=C(CCCl)Nc1cc(SCCO)cc([N+](=O)[O-])c1	3%	-7%	-16%[14.3 µM]	6%	-7%	0.4%	9%	-3%
CCN1CCN(CCc2nc3cc(NC(=O)COc4ccc(Cl)cc4)ccc3n2C)CC1	-1%	-18%	/	/	/	/	18%	-1%
Cc1cc(NC(=O)c2ccc(NC(=O)c3cccs3)cc2)no1	18%	11%	8%	-13%	-1%	-8.1%	-3%	-8%
COc1ccc(C(=O)CCC(C)(C)[N+](=O)[O-])cc1OC	2%	6%	-3%	9%	/	/	1%	/
COc1ccc(S(=O)(=O)Oc2ccc(C(=S)N3CCOCC3)cc2OC)cc1	2%	?	-21%	?	/	/	-10%	-2%

(continued)
SMILES	SARS PLP yeast	StopGo reporter	LASV entry inh	MARV entry inh	Cruzain inh noDet	Cruzain Triton	RE007 growth inh	NS1 inh
Cc1ccc(Cl)cc1N1CCN(C(=O)c2ccc(NC(=O)c3nsc4ccccc34)cc2)CC1	/	11%	2%[46.1 µM]	/	7.9µM*	2.2%	/	/
COc1cc(C(=O)N/N=C/C2CC=CCC2)cc(OC)c1OC (stereo not given)	?	10%	?	?	-8%	-2.3%	0%	5%
COc1ccc(NC(=S)NC(C)C(c2ccccc2)N2CCOCC2)cc1 (stereo not given)	0%	1%	4%[46.1 µM]	-8%[46.1 µM]	/	/	-5%	/
Cc1cccc2sc(N(CCN3CCOCC3)C(=O)CCS(=O)(=O)c3ccccc3)nc12	6%	0%	?	?	/	/	-7%	/
CC(=O)OCC(OC(C)=O)C(OC(C)=O)C(OC(C)=O)C(=O)Nc1ccc(C)cc1 (stereo not given)	9%	34%[activator]	-7%	0%	15%	7.2%	13%	-2%
CCC1=NN(C(=O)c2ccc(Cl)cc2)C(O)(c2ccccc2)C1 (stereo not given)	1%	-7%	/	/	/	/	6%	-15%
Cc1ccccc1NS(=O)(=O)c1ccc2[nH]cc(C(=O)NC3CCCCC3)c(=O)c2c1	-5%	-8%	?	/	-11%	-6.1%	/	/
CCOCCCNC(=O)C1(O)c2cc(Br)ccc2NC(=O)N1c1ccc(OCC)cc1 (stereo not given)	7%	-20%	/	/	/	/	7%	-6%
O=C(NC(Cc1ccccc1)C(=O)O)/C(=C\c1ccc(F)cc1)NC(=O)c1ccccc1 (stereo not given)	2%	-8%	?	0%	13%	0.0%	3%	16%
COc1ccccc1C(=O)NCC(=O)OCC(=O)c1ccc(Cl)s1	2%	3%	11%	9%	/	/	-4%	/
COc1ccc(C(=O)N(CCc2ccccc2)Cc2ccccc2)cc1S(=O)(=O)N1CCOCC1	7%	12%	-13%	?	/	/	-1%	/
O=C(O/N=C1\CCS(=O)(=O)c2sccc21)C1CC1	-2%	-18%	16%	9%	/	/	6%	6%
NC(=O)C1(Nc2ccc(C(=O)O)cc2)CCCC1	/	-23%	15%	23%	/	/	-15%	/
C=Cc1cccc(NC(=O)c2ccc(NC(=O)c3ccco3)cc2)c1	-1%	-5%	/	/	/	/	-9%	-29%
C=CCc1cc(C=C2C(=O)N(C)C(=O)N(C)C2=O)cc(OCC)c1OCc1ccccc1	9%	-29%	3%	-29%	?	-6.9%	-9%	-2%
CCCN(CCC)Cc1c(C(=O)N/N=C/C(C)=C\c2ccco2)nnn1-c1nonc1N	-4%	13%	?	4.5µM*	/	/	-6%	-12%
Cn1c(CCNC(=O)c2ccco2)nc2cc(NC(=O)C3CCCCC3)ccc21	37%	34%[activator]	0%	9%[46.1 µM]	-5%	-0.6%	-24%	-4%
CC1(C)CC(=O)C(C=Nc2ccccc2)=C(O)C1	8%	38%[activator]	2%	-5%	-3%	3.0%	20µM*	2%
CC1CCc2c(nc3ncnn3c2N2CC(C)OC(C)C2)C1 (stereo not given)	0%	-12%	-3%	4%	3%	-2.7%	11%	?
COc1ccc(NS(=O)(=O)c2ccc(OCC(=O)N3CCN(C)CC3)cc2)cc1Cl	?	16%	24%[46.1 µM]	3%[46.1 µM]	/	/	18%	-15%
C=CCn1c(=O)c2ccccc2n2c(SCC(=O)/C(C#N)=C(\C)N)nnc12	3%	-14%&4%	21%[46.1 µM]	5%[46.1 µM]	5%	3.7%	0%&-4%	-2%
CCC(=O)Nc1ccc(NC(=O)c2ccco2)cc1	-14%	18%	?	-31%	5%	5.1%	14%	-5%
COc1ccccc1Nc1nc(-c2ccc(F)cc2)c2c(n1)-c1ccccc1OC2	/	-5%	11%[46.1 µM]	?	10µM*	-4.8%	/	/
COc1ccc(S(=O)(=O)N2CCCCC2)cc1NC(=O)CCNC(=O)c1ccc(Br)cc1	2%	21%	10%	-13%	/	/	11%	/
Cc1ccc(N=Nc2c(N)nn(-c3ccccc3)c2N)cc1	-41%	57%[activator]	?	?	-18%	-8.5%	-18%	-16%

Other records:
SMILES	SARS PLP yeast	StopGo reporter	LASV entry inh	MARV entry inh	Cruzain inh noDet	Cruzain Triton	RE007 growth inh	NS1 inh
Cc1ccc(CSc2nnc(NC(=O)C3COc4ccccc4O3)s2)cc1 (stereo not given)	-5%	-5%	/	5%	?	-2.6%	-8%	3%
Cc1ccc(S(=O)(=O)NC(=O)N(C)C2CCCCC2)cc1	2%	-12%	21%	1%[46.1 µM]	/	/	-4%	1%
Cc1ccc(-n2nc(C)c3c(C)c(CCC(=O)NCc4ccccc4Cl)c(C)nc32)cc1C	/	-7%	5%[46.1 µM]	-1%[46.1 µM]	-5%	1.9%	/	/
CCCc1nnc(NC(=O)c2cc3ccccc3oc2=O)s1	-5%	-5%	13%	12%	-9%	1.7%	-10%	0%
N#Cc1cccc(NC(=O)CSc2nc3c(cc2C#N)N2CCC3CC2)c1	/	40%[activator]	?	?	-10%	-2.4%	/	/
CCOc1ccc(NC(=O)Cn2c(=O)n(CCCCC(=O)NCCc3ccc(Cl)cc3)c(=O)c3ccccc32)cc1	/	-8%	?	-18%[46.1 µM]	-1%	-1.0%	/	/
Cc1cnc(Sc2ncccc2[N+](=O)[O-])nc1	/	-9%	5%	?	/	/	-6%	/
COc1ccc2c(c1)C(SCC(=O)NCCc1ccccc1)CC(C)(C)O2 (stereo not given)	-10%	2%	2%	-14%	9%	-6.0%	10%	-49%
CCSc1nnc(Nc2ccccc2)s1	1%	46%[activator]	0%	?	-2%	5.4%	-22%	-17%
COc1ccc2[nH]c(=O)c(CN(C)C(=O)c3cccs3)cc2c1	-1%	-4%	22%	5%	/	/	26%	-8%
CCOc1ccccc1CNc1ccc(N2CCOCC2)c(C(=O)O)c1	-13%	8%	-7%	9%	-8%	3.6%	-1%	1%
CC1Oc2ccccc2N(CC(=O)N2CCCC2)C1=O (stereo not given)	3%	-2%	-3%	6%	/	/	-3%	23%
Nc1ccc(Cl)cc1C(=O)OCC(=O)NC1CCS(=O)(=O)C1 (stereo not given)	-1%	7%	?	-11%[46.1 µM]	/	/	3%	-3%
